# Screening results from PubChem BioAssay.
# A1 inh = inducers of caspase activity in MEF A1-2A-BIM cells, primary screen, A1 inhibitor project, cell-based, CaspaseGlo luminescence. caspase-Glo luminescence, 3 h; percent of clofoctol signal, DMSO as zero. caspase activation, % (no concentration beside the values). hit rate 0.51% among 21,000;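 active = most replicate scores above 10, or exactly half above 10 with mean activity above 10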;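 also: effector caspase 3 and 7 activity cleaving a DEVD luciferin substrate; 50 nL library stock added to about 30 µL; numbers are from one replicate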
# BJeLR viability = BJeLR cell viability loss, primary screen, luminescence, CellTiterGlo ATP. BJeLR fibroblasts viability, 48 h; HRASV12, hTERT and SV40 LT/ST transformed. hit rate 0.64% among 30,000. AID 2275, 2010. viability loss activity score, % (test concentration not listed); in the data active = viability loss activity score above about 50%; about a fifth of its hits are not listed in these tables;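 also: higher score means fewer live cells and less ATP luminescence; stock transfer was 50 or 100 nL into about 30 µL; 0% = vehicle wells and 100% = a reference killing control; one replicate is shown; the record names a cut of 85%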
# Numbers without * were called inactive; nt = not tested or not shown. A portion of the library; rates above refer to the full screens.
SMILES,A1 inh,BJeLR viability
C[C@@H]1CN([C@@H](C)CO)C(=O)c2cccc(NC(=O)Nc3ccc(F)cc3)c2O[C@H]1CN(C)Cc1ccc(Oc2ccccc2)cc1,nt,-0.3
C[C@H](CO)N1C[C@H](C)[C@H](CN(C)S(=O)(=O)c2ccc(F)cc2)Oc2c(NS(=O)(=O)c3cn(C)cn3)cccc2C1=O,nt,-1.7
CC(C)NC(=O)Nc1ccc2c(c1)C(=O)N([C@H](C)CO)C[C@@H](C)[C@H](CN(C)Cc1ccc(C(=O)O)cc1)O2,0.1,-4.2
Cc1ccc(Cl)cc1N1CCN(C(=O)c2ccccc2N(Cc2ccccc2)S(C)(=O)=O)CC1,nt,-3.1
COc1ccc(C2=NN(CC(=O)NCc3ccc(C)cc3)C(=O)CC2)cc1,0.5,0.7
C[C@@H]1CN([C@@H](C)CO)C(=O)c2cc(NS(C)(=O)=O)ccc2O[C@H]1CN(C)C(=O)Nc1ccc(F)cc1,-0.3,2.4
CCOc1ccc(C(=O)CC(=O)C(=O)OC)cc1,-0.9,0.3
CC(C)NC(=O)Nc1ccc2c(c1)C(=O)N([C@H](C)CO)C[C@H](C)[C@H](CN(C)C(=O)Nc1ccccc1)O2,0.7,-2.3
Cc1cccc(N(CC(N)=O)S(C)(=O)=O)c1C,0.4,-0.4
C=CCNC(=O)c1cc(-c2ccccc2O)on1,nt,-3.5
CC1(C)CC(NC(=O)/C=C/C(=O)NC2CC(C)(C)NC(C)(C)C2)CC(C)(C)N1,0.1,2.7
CCCCN(Cc1ccccc1)S(=O)(=O)c1cccc2nsnc12,nt,3.5
C[C@@H]1CN([C@@H](C)CO)C(=O)c2cc(NC(=O)Cn3cnnn3)ccc2O[C@@H]1CN(C)Cc1ccc2c(c1)OCO2,0.6,-1.9
Cc1noc(C)c1S(=O)(=O)Nc1ccc2c(c1)C(=O)N([C@@H](C)CO)C[C@H](C)[C@H](CN(C)C(=O)Nc1ccccc1)O2,0.0,-1.5
CCC1CCc2c(sc3ncnc(N4CCOCC4)c23)C1 (centres undefined),0.0,-1.6
CCOC(=O)Cn1nc(-c2ccc(Cl)cc2)ccc1=O,-0.4,-5.7
COc1ccc(NC(=O)N(C)C[C@@H]2Oc3c(NC(=O)C4CCOCC4)cccc3C(=O)N([C@@H](C)CO)C[C@H]2C)cc1,nt,-5.8
C[C@@H]1CN([C@@H](C)CO)C(=O)c2cc(NC(=O)Cc3cn(C)c4ccccc34)ccc2O[C@H]1CN(C)C,-0.7,3.3
COc1ccccc1Cc1nnc(C(=O)NCCc2ccccc2)o1,nt,11
CCOc1cc2c(cc1/C=C1\NC(=O)N(Cc3ccccc3)C1=O)OCO2,nt,-2.2
COc1ccc(NC(=O)N(C)C[C@@H]2Oc3ccc(NS(=O)(=O)c4ccccc4)cc3C(=O)N([C@@H](C)CO)C[C@@H]2C)cc1,0.6,0.6
Cc1cc(C(F)(F)F)nc2snc(Br)c12,nt,-4.0
CC1CCCC(NC(=O)CN2C(=O)/C(=C\c3ccccc3Cl)Oc3ccccc32)C1C (centres undefined),nt,2.6
O=C(NCC1COc2ccccc2O1)c1cc2c(s1)-c1ccccc1OC2 (centres undefined),1.2,3.3
S=c1nc[nH]c2c1cnn2-c1ccccc1,-2.7,0.6

# Of the compounds above, these contain a halogen.
SMILES,A1 inh,BJeLR viability
C[C@@H]1CN([C@@H](C)CO)C(=O)c2cccc(NC(=O)Nc3ccc(F)cc3)c2O[C@H]1CN(C)Cc1ccc(Oc2ccccc2)cc1,nt,-0.3
C[C@H](CO)N1C[C@H](C)[C@H](CN(C)S(=O)(=O)c2ccc(F)cc2)Oc2c(NS(=O)(=O)c3cn(C)cn3)cccc2C1=O,nt,-1.7
Cc1ccc(Cl)cc1N1CCN(C(=O)c2ccccc2N(Cc2ccccc2)S(C)(=O)=O)CC1,nt,-3.1
C[C@@H]1CN([C@@H](C)CO)C(=O)c2cc(NS(C)(=O)=O)ccc2O[C@H]1CN(C)C(=O)Nc1ccc(F)cc1,-0.3,2.4
CCOC(=O)Cn1nc(-c2ccc(Cl)cc2)ccc1=O,-0.4,-5.7
Cc1cc(C(F)(F)F)nc2snc(Br)c12,nt,-4.0
CC1CCCC(NC(=O)CN2C(=O)/C(=C\c3ccccc3Cl)Oc3ccccc32)C1C (centres undefined),nt,2.6

# Next part.
SMILES,A1 inh,BJeLR viability
Cc1noc(C)c1NC(=O)Nc1ccc2c(c1)C(=O)N([C@@H](C)CO)C[C@@H](C)[C@@H](CN(C)Cc1ccncc1)O2,0.9,2.4
COC(=O)c1cn(C(=O)CCc2ccccc2)c2ccccc12,-0.3,1.2
CSc1nc2cc(C)nn2c(-c2ccco2)c1C#N,0.5,3.8
COC(=O)c1sccc1S(=O)(=O)Nc1ccc2c(c1)OCCO2,nt,0.8
CN(C)/C=N/c1nnc(SCC(=O)Nc2cc(Cl)cc(Cl)c2)s1,-0.5,-2.0
C[C@H](CO)N1C[C@H](C)[C@H](CN(C)C(=O)Nc2ccccc2)Oc2ccc(NC(=O)NC3CCCCC3)cc2C1=O,0.2,4.7
Cc1noc(C)c1NC(=O)Nc1cccc2c1O[C@@H](CN(C)C)[C@@H](C)CN([C@H](C)CO)C2=O,nt,1.8
C[C@@H]1CN([C@@H](C)CO)C(=O)c2cc(NS(=O)(=O)c3ccccc3)ccc2O[C@@H]1CN(C)S(=O)(=O)c1cn(C)cn1,-1.1,-1.3
Cc1noc(C)c1S(=O)(=O)Nc1ccc2c(c1)C(=O)N([C@@H](C)CO)C[C@H](C)[C@H](CN(C)S(=O)(=O)c1ccccc1)O2,0.1,-0.3
C[C@@H]1CN([C@H](C)CO)C(=O)c2cc(NC(=O)Cc3cn(C)c4ccccc34)ccc2O[C@H]1CN(C)Cc1ccccc1,0.0,0.8
COc1ccc(NC(=O)N(C)C[C@@H]2Oc3ccc(NC(=O)CCCN(C)C)cc3C(=O)N([C@H](C)CO)C[C@H]2C)cc1,-0.2,-2.6
NC(=O)CSc1ccc(-c2cccs2)nn1,-0.6,-0.6
CNC[C@@H]1Oc2c(NC(=O)Nc3c(C)noc3C)cccc2C(=O)N([C@@H](C)CO)C[C@H]1C,nt,-3.1
N#Cc1nc(-c2ccccc2)oc1NCCN1CCCCC1,-0.8,4.2
COC(=O)c1cc(C)cc(=O)o1,-0.7,-1.7
O=C(Cc1cccs1)N1c2ccccc2Sc2ccccc21,-0.2,-4.4
O=C(OCn1nnc2ccccc2c1=O)c1cccnc1,-0.2,0.0
COc1ccc(S(=O)(=O)Nc2cccc3c2O[C@H](CN(C)Cc2ccc4c(c2)OCO4)[C@H](C)CN([C@H](C)CO)C3=O)cc1,nt,7.6
O=C(CSc1nc(-c2cccs2)cc(C(F)(F)F)n1)N1CCSCC1,-0.3,-1.5
CSc1cccc(NC(=S)N(CCN2CCCCC2)Cc2ccco2)c1,nt,-3.0
Cc1cc(NC(=O)CCOc2ccc(F)cc2)no1,2.1,0.2
S=C(CC(=S)N1CCOCC1)N1CCOCC1,-1.1,8.7
O=C(NCC1CCCO1)c1cc(=O)[nH]c2ccc(Br)cc12 (centres undefined),0.2,0.3
COc1ccc(-c2ccc(N)[n+](CCCC(=O)O)n2)cc1,0.3,-2.6
O=C(O)C1CCCN1C(=O)OCc1ccccc1 (centres undefined),-0.5,0.1

# More compounds follow.
SMILES,A1 inh,BJeLR viability
C[C@@H]1CN([C@H](C)CO)C(=O)c2cc(NS(=O)(=O)c3cccs3)ccc2O[C@H]1CN(C)C(=O)Nc1ccccc1,0.6,1.0
C[C@@H]1CN([C@H](C)CO)C(=O)c2cccc(NC(=O)C3CCOCC3)c2O[C@H]1CN(C)C(=O)Nc1ccc2c(c1)OCO2,nt,-5.8
CCN(CC)CCSc1nnc2c3ccccc3n(CC(N)=O)c2n1,0.4,3.1
C[C@@H]1CN([C@@H](C)CO)C(=O)c2cc(NS(=O)(=O)c3cn(C)cn3)ccc2O[C@@H]1CN(C)C,0.1,5.3
O=C(/C=C/c1ccccc1)O[C@@H]1C[C@@](O)(C(=O)O)C[C@@H](O)[C@@H]1O,-0.3,0.3
C[C@H]1CN([C@@H](C)CO)C(=O)c2cccc(NC(=O)c3ccc(-c4nccs4)cc3)c2O[C@H]1CN(C)S(=O)(=O)c1ccc(F)cc1,nt,-2.3
Cc1noc(C)c1NC(=O)Nc1ccc2c(c1)C(=O)N([C@@H](C)CO)C[C@@H](C)[C@H](CN(C)C)O2,0.9,-2.5
Cc1cc(Br)cnc1N=CNO,-0.1,-0.5
Cc1cc(C(=O)Nc2cccc3c2O[C@H](CN(C)S(=O)(=O)c2cccs2)[C@@H](C)CN([C@H](C)CO)C3=O)n(C)n1,nt,7.7
Cn1cnc2c(NCc3ccccc3)nc(NCCO)nc21,-0.1,-2.8
COc1ccc(C2CC(=O)Oc3cc(O)cc(O)c32)cc1 (centres undefined),-1.1,-4.0
Cc1cccc(-n2ncc3c(N(CC(C)C)CC(C)C)ncnc32)c1,-0.2,-0.1
CC(=O)OCC(=O)[C@@]1(O)CC[C@H]2[C@@H]3CCC4=CC(=O)CC[C@]4(C)[C@H]3[C@@H](O)C[C@@]21C,2.0,-4.3
CC(C)c1ccc(NC(=O)C2CCC(CNS(=O)(=O)c3cccc4cccnc34)CC2)cc1 (centres undefined),nt,8.6
COC(=O)c1cc2cc(O)c(-c3c(O)cc4cc(C(=O)OC)oc(=O)c4c3O)c(O)c2c(=O)o1,-0.6,-0.7
CS(=O)(=O)N1CCN(c2cccc(Cl)c2)CC1,0.3,-1.0
Cc1ccc(N2CCN(c3ccc(C)cc3)C2c2ccncc2)cc1,nt,-1.3
Cc1ccc(S(=O)(=O)N(C)C[C@H]2Oc3ccc(NC(=O)Nc4ccc(F)cc4)cc3C(=O)N([C@H](C)CO)C[C@@H]2C)cc1,0.0,-0.4
CCN(CC)S(=O)(=O)c1ccc(-c2cn3ccccc3n2)cc1,-3.6,0.4
Cc1c(C(=O)O)sc(=S)n1CCOc1ccccc1,nt,0.1
C[C@@H]1CN([C@@H](C)CO)C(=O)c2cc(NC(=O)NC3CCCCC3)ccc2O[C@H]1CN(C)C,0.9,-1.0
CC(C)NC(=O)Nc1cccc2c1O[C@@H](CN(C)S(=O)(=O)c1ccc(F)cc1)[C@H](C)CN([C@H](C)CO)C2=O,nt,1.3
C[C@H](CO)N1C[C@H](C)[C@H](CN(C)S(=O)(=O)c2cccs2)Oc2c(NC(=O)Nc3cccc4ccccc34)cccc2C1=O,nt,13
C[C@H](CO)N1C[C@H](C)[C@H](CN(C)Cc2ccc(Cl)c(Cl)c2)Oc2ccc(NS(=O)(=O)c3ccccc3)cc2C1=O,-0.3,-2.1
O=C(COc1ccc(Cl)cc1)CC(=O)c1ccc(Cl)cc1,0.1,0.5

# Continued.
SMILES,A1 inh,BJeLR viability
C[C@H]1CN([C@@H](C)CO)C(=O)c2cc(NS(=O)(=O)c3ccc(Cl)cc3)ccc2O[C@@H]1CN(C)CC1CCCCC1,0.0,2.4
O=C(O)/C=C/C(=O)N(Cc1ccccc1)Cc1ccccc1,1.2,9.7
O=C(NCc1ccc(N2CCOCC2)cc1)c1cc(F)cc2c1OCOC2,0.1,-1.9
CCOC(=O)c1cccc(NC(=O)CCc2ccccc2)c1,0.0,9.3
C[C@@H]1CN([C@H](C)CO)C(=O)c2cccc(NC(=O)Nc3ccc(F)cc3)c2O[C@H]1CN(C)Cc1ccccc1,nt,7.2
C[C@H]1CN([C@@H](C)CO)C(=O)c2cc(NC(=O)Cc3cn(C)c4ccccc34)ccc2O[C@H]1CN(C)C(=O)Nc1ccccc1,0.6,-7.1
C[C@@H]1CN([C@H](C)CO)C(=O)c2cc(NS(=O)(=O)c3ccccc3)ccc2O[C@@H]1CN(C)S(=O)(=O)c1ccccc1,-1.1,11
C[C@H](CO)N1C[C@H](C)[C@H](CN(C)Cc2ccc(C(F)(F)F)cc2)Oc2ccc(NC(=O)Cc3ccccc3)cc2C1=O,-0.7,-1.6
COc1ccc(CC(=O)NCC2COc3ccccc3O2)cc1OC (centres undefined),0.7,1.4
C[C@]12CCC[C@](C)(C(=O)O)C1CCC13C=C(CO)C(CCC12)C3 (some centres undefined),-0.5,3.2
O=C1c2ccccc2C(=O)N1CCCSc1nccn1-c1cc(Cl)ccc1Cl,0.0,-4.3
CNC[C@H]1Oc2ccc(NC(=O)Nc3ccc(F)cc3)cc2C(=O)N([C@@H](C)CO)C[C@H]1C,-0.3,4.9
C[C@H](CO)N1C[C@H](C)[C@@H](CN(C)C(=O)Nc2ccccc2)Oc2ccc(NC(=O)Nc3ccc4c(c3)OCO4)cc2C1=O,0.6,-3.1
C[C@H](CO)N1C[C@H](C)[C@H](CN(C)CC2CC2)Oc2ccc(NS(=O)(=O)c3ccc(Cl)cc3)cc2C1=O,-0.5,0.6
S=C(Nc1cccc(Cl)c1)N1CCCN(Cc2ccccc2Cl)C1,nt,-1.3
CSc1sc(-c2ccn[nH]2)c(-c2ccco2)c1C#N,0.4,0.6
C[C@H](CO)N1C[C@H](C)[C@@H](CN(C)C(=O)Nc2ccc3c(c2)OCO3)Oc2c(NS(=O)(=O)c3cccs3)cccc2C1=O,nt,-0.2
C[C@@H]1CN([C@H](C)CO)C(=O)c2cc(NS(=O)(=O)c3ccc(Cl)cc3)ccc2O[C@@H]1CN(C)S(=O)(=O)c1ccc(F)cc1,-0.9,4.6
C[C@H](CO)N1C[C@H](C)[C@@H](CN(C)C(=O)NC2CCCCC2)Oc2c(NS(=O)(=O)c3cn(C)cn3)cccc2C1=O,nt,2.0
COc1ccc(CN(C)C[C@H]2Oc3c(NS(=O)(=O)c4cccs4)cccc3C(=O)N([C@H](C)CO)C[C@H]2C)cc1,nt,-0.9
Cc1cc(Cl)c(C(N)=O)c(C)n1,-1.5,-0.3
